TAR Tat displ: TAR RNA-Tat peptide displacers, HIV-1, primary screen, biochemical, FRET, FAM/TAMRA-labeled Tat | HIV-1 TAR RNA, Tat peptide displacement FRET; active compounds read high | z-score (no concentration beside the values) | actives 0.6% (n = 100,000);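 further: score is relative to mean and SD of negative controls; some compounds called inactive have numbers as strong as hits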
CDC25B-CDK2 inh: primary biochemical HTRF screen for blockers of M-phase inducer phosphatase 2 binding to CDK2/cyclin A. z-score (test concentration not listed). HTRF CDC25B-CDK2/CyclinA binding, anti-His/anti-Flag; active compounds read high. actives 0.72% (n = 94,000). P30305+P24941;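 further: score is relative to mean and SD of negative controls; strong numbers were not always called active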
Numbers without * were called inactive; nt = no result given.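 How the source made its calls: active means z-score from 3 up in half or more of its runs; inactive means the rest.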

SMILES | TAR Tat displ | CDC25B-CDK2 inh
CCOc1ccccc1NS(=O)(=O)c1ccc2c(c1)NC(=O)C(C)S2 (centres undefined) | 1.82 | nt
Cc1ccc(NC(=S)/N=C/N(C)C)c(C)c1 | nt | -1.54
O=C1CSC(c2ccccn2)N1c1ccc2ccccc2c1 (centres undefined) | 1.92 | nt
O=C1NC(c2ccccc2F)C(C(=O)c2ccc(Cl)cc2)C(O)(C(F)(F)F)N1 (centres undefined) | nt | -0.88
CC12CC(NC(=S)N1Cc1ccc3c(c1)OCO3)c1ccccc1O2 (centres undefined) | nt | -1.13
Nc1ccc2nc(CCc3nc4ccc(N)cc4s3)sc2c1 | -7.52 | 2.33
CCOC(=O)[C@H](CCc1ccccc1)N[C@H]1CCc2ccccc2N(CC(=O)O)C1=O | 0.31 | nt
O=C(Nc1onc2c1CCCC2)c1ccc(F)cc1 | 0.4 | -0.98
CC(C)c1ccc(N2C(=O)c3ccncc3C2=O)cc1 | 1.22 | nt
Cc1ccccc1-c1nc2c3c4c(sc3ncn2n1)C(C)(C)NC(C)(C)C4 | 1.39 | -1.57
Cc1cc2n(n1)CCCN2C(=O)CCC(=O)NCCCOC(C)C | 4.34* | nt
CCc1ccc(C2C(C(=O)OCC3CCCO3)=C(C)NC3=C2C(=O)CC(c2cccs2)C3)s1 (centres undefined) | 0.93 | -1.2
CCc1ccc(C2C(C(=O)OCC3CCCO3)=C(C)NC3=C2C(=O)CCC3)cc1 (centres undefined) | -0.3 | -1.68
CCCCCNc1nc(CCCC)c2c(c1C#N)CC(C)(C)OC2 | 0.29 | -1.15
COCCNC(=O)c1c(NC(=O)c2nn(-c3ccc(F)cc3)ccc2=O)sc2c1CCCC2 | 1.52 | -1.14
CC1CCCCN1c1nnc(NC(=O)Nc2ccc(Cl)cc2)s1 (centres undefined) | 2.19 | -2.1
O=C1CC(=O)Nc2cc(S(=O)(=O)NCc3ccccn3)ccc2N1 | nt | -1.56
CCOC(=O)c1cc(-c2ccc(S(=O)(=O)N3CCC(C)CC3)s2)on1 | 0.94 | nt
CCOC(=O)C1=C(C)OC(N)=C(C#N)C1c1ccc(-c2ccccc2)cc1 (centres undefined) | nt | -0.4
CCOc1cc(C)c(C(C)C)cc1S(=O)(=O)n1ccnc1C(C)C | -1.06 | 0
CCC(=O)N1CCc2cc(Br)cc(S(=O)(=O)N3CCCC3c3cc(C)on3)c21 (centres undefined) | 0.74 | nt
CC(Oc1ccccc1Cl)C(=O)Oc1cccc(-n2cnnn2)c1 (centres undefined) | 0.33 | -0.42
CCCCC[C@H](O)/C=C/[C@H]1[C@H](O)CC(=O)[C@@H]1CCCCCCC(=O)O | 3.47 | nt
O=C(NCCN=C1NS(=O)(=O)c2ccccc21)c1ccccc1 | nt | -2.14
Cc1ccccc1-c1noc(-c2cc(C(C)C)[nH]n2)n1 | -0.11 | nt

Next part:
SMILES | TAR Tat displ | CDC25B-CDK2 inh
O=C(Nc1ccc(S(=O)(=O)Nc2ncccn2)cc1)c1nn(-c2ccc(Cl)cc2)ccc1=O | 0.23 | -0.39
CC1CCC2=NN(C(=O)c3ccco3)C(O)(C(F)(F)F)C2C1 (centres undefined) | nt | -1.48
O=C(CCC1CCCC1)Nc1ccc2nc3n(c(=O)c2c1)CCCC3 | -1.47 | -0.87
O=S(=O)(Nc1ccc2c(c1)N(S(=O)(=O)c1ccccc1)CCC2)c1cccc(F)c1 | 0.99 | nt
CC1(C(=O)O)CCC(C(=O)O)C1(C)C (centres undefined) | 1.45 | -1.33
Cc1nc(-c2ccc(C)c(S(=O)(=O)N(C)Cc3ccccc3)c2)cs1 | 0.46 | nt
O=C(NNC(=O)c1ccc(Oc2ccc(Cl)cc2)nc1)c1ccc(Cl)cc1 | nt | -0.54
CCN(CC)CCNC(=O)Cn1ncc2c1-c1ccccc1OC2 | -0.1 | 0.2
Cc1noc(C)c1S(=O)(=O)N=S(C)(=O)c1ccc(Cl)cc1 (centres undefined) | nt | -0.9
Cc1ccc(Cl)cc1N1CCN(S(=O)(=O)c2c(C)nc3scc(C)n3c2=O)CC1 | 0.3 | -0.81
CCOC(=O)c1c(C)oc2nc(C)nc(NCCCN3CCc4ccccc4C3)c12 | 0.58 | nt
Cc1nn(-c2nc3ccccc3s2)c2c1C(c1c(F)cccc1F)CC(=O)N2 (centres undefined) | 1.52 | nt
CC(C)c1ccc(-n2cc[nH]c(=O)c2=O)cc1 | 1.8 | -1.14
O=C(Cn1cc(SCc2cccc(Cl)c2)c2ccccc21)N1CCCC1 | 0.19 | nt
CC(C)Cc1cc(C(F)(F)F)n(-c2nc(C(=O)O)cs2)n1 | 0.98 | nt
O=C1CCSc2c1cccc2C(=O)N1CCC(Cc2ccccc2)CC1 | 1.81 | nt
COc1ccc(-c2nc(-c3cccnc3)[nH]c2-c2ccc(OC)cc2)cc1 | -0.21 | -0.27
O=C(O)c1ccc(CO)cc1 | nt | -0.13
Cc1ccc(-c2nnn3c2nc(NCc2ccco2)c2ccccc23)cc1 | 1.18 | -1.99
O=C(CCCCCn1c(=O)[nH]c2ccccc2c1=O)NC1CCCCC1 | 0.7 | nt
OCc1nc2ccccc2n1Cc1ccccc1 | nt | -0.83
Cc1ccc(NC(=O)c2c(C)noc2C)cc1NS(C)(=O)=O | nt | -0.47
COc1ccc(Br)cc1S(=O)(=O)NC1CC(C)(C)NC(C)(C)C1 | nt | -0.73
Clc1ccc(-c2csc3ncnc(NCc4cccnc4)c23)cc1 | -0.21 | nt
O=C1CC(c2ccc(F)cc2)Cc2c1cnc1[nH]n(-c3ccccc3)c(=O)c21 (centres undefined) | -0.5 | -1.05

(listing goes on)
SMILES | TAR Tat displ | CDC25B-CDK2 inh
CCCCN(C)S(=O)(=O)c1ccc2c(c1)CC(C)N2C(=O)C1CC1 (centres undefined) | 1.74 | nt
Cc1nn(-c2ccc(C(=O)O)cc2)c2c1C(=O)CC(C)(C)C2 | 2.45 | -0.93
O=c1[nH]c2c(-c3ccccc3F)sc(=S)n2c2ccccc12 | 3.62 | -1.46
CSc1ncnc(SC)c1Br | nt | -1.69
CC(NS(=O)(=O)c1ccc(N)cc1)C(=O)O (centres undefined) | 0.97 | -0.58
CC(C)(C)c1ccc(OCc2ccc(C(=O)O)o2)cc1 | 1.44 | 0.75
O=C(CSc1nc(O)cc(=O)[nH]1)N1c2ccccc2Sc2ccccc21 | -0.61 | -0.9
C=CCNC(=O)CCC(=O)N1CCCn2nc(-c3cccn3C)cc21 | 1.71 | nt
O=C(O)CP(=O)(O)O | nt | -0.93
COc1cccc(Nc2nc(N3CCN(C4CCCCC4)CC3)nc3c2cnn3C)c1 | 1.52 | nt
COCCNC(=O)c1c(NC(=O)c2nn(-c3cccc(Cl)c3)ccc2=O)sc2c1CCCC2 | -0.2 | -1.13
Cc1cc(C)nc(SCc2cn3cc(Br)ccc3n2)n1 | nt | -1.33
CC1CC(C)CN(C(=O)CCS(=O)(=O)c2cc(Br)cc3c2N(C(=O)C2CC2)CC3)C1 (centres undefined) | 0.25 | 0.26
Clc1ccc(OCCSc2nnc(-c3cccs3)o2)cc1 | 0.24 | -1.18
CCCn1cc(-c2ccccc2)nc1C | -1.01 | nt
NC(=O)CSc1nccn(-c2cccc(F)c2)c1=O | -0.14 | nt
CN(C1CCCCC1)S(=O)(=O)c1ccc2c(c1)NC(=O)CO2 | 1.7 | nt
COc1ccc(Nc2cc(Nc3cccc(F)c3)ncn2)cc1 | 0.43 | -0.72
Cc1cc(=O)n2nc(N3CCCC(C(=O)NCCCN4C(C)CCCC4C)C3)sc2n1 (centres undefined) | 1.34 | -0.58
COc1ccc(C2c3c(n(C)c(=O)n(C)c3=O)N=C3c4ccccc4C(=O)C32)cc1 (centres undefined) | -0.47 | -2.03
CCN(CC)C(=S)Oc1ccc(Br)cc1C(=O)NCCc1ccncc1 | nt | -0.28
COC(=O)c1ccc(NC(=O)N2CCCC2c2cccs2)cc1 (centres undefined) | 0.81 | -3.02
CCN1CCN(c2oc(/C=C/c3ccc(F)cc3)nc2C#N)CC1 | 0.63 | 1.1
O=S(=O)(c1ccc(F)cc1)N1CC=C(c2ccccc2)CC1 | nt | -0.25
CCC(O)c1nc2ccccc2n1CCCOc1cccc(C)c1C (centres undefined) | 1.01 | -0.96

(next part)
SMILES | TAR Tat displ | CDC25B-CDK2 inh
CC1(O)Cc2[nH][nH]c(=O)c2C(c2ccccc2)C1C(=O)OCc1ccccc1 (centres undefined) | 1.01 | -0.29
O=C(CSc1nc2sc3c(c2c(=O)n1-c1ccccc1)CCCC3)N1CCOCC1 | -0.43 | -1.29
c1cc2c(cc1-c1nn3cnnc3s1)OCCO2 | 0.12 | 0.01
O=C(O)C1CCCN1C(=O)Nc1cccc(Cl)c1 (centres undefined) | -1.29 | -1.28
COc1ccc(NC(=O)c2cnn3c(C(F)(F)F)cc(-c4cccs4)nc23)c(OC)c1 | 1.38 | nt
O=C(N=Nc1c(O)[nH]c2ccccc12)c1cc(-c2ccc(Br)cc2)nc2ccccc12 | nt | -2.3
CCCSC1=C(C#N)C(c2ccccc2C)CC(=O)N1 (centres undefined) | 0.34 | 1.6
C=CCSc1nc2c(c(=O)[nH]1)C(c1ccc(Cl)cc1)C(C(=O)OC)=C(C)N2 (centres undefined) | -0.21 | -1.09
O=C(Nc1nnc2n1CCS2)C1CCCCC1 | 1.16 | nt
O=S1(=O)CCC(S(=O)(=O)Nc2ccc(Cl)cc2)C1 (centres undefined) | -0.5 | -0.33
Cc1ccc(C(C)NC(=O)c2oc3c(c2C)-c2nc(C)sc2CC3)c(C)c1 (centres undefined) | 0.53 | nt
CCCC1CNc2cc(C)ccc2O1 (centres undefined) | 2.06 | -1.1
CC1=C(c2ccc(C)cc2)S(=O)(=O)N=C1Nc1ccc(F)cc1 | -2.22 | 0.05
N/C(=N\O)c1nccnc1Oc1cccc(C(F)(F)F)c1 | nt | -0.58
Cc1ccc(CSc2nnc(-c3ccncc3)o2)cc1 | 1.01 | -0.78
O=C(O)CNC(=O)CNC(=O)c1ccco1 | 1.6 | 0.23
O=C(Nc1cccc(OCc2cc(=O)n3c4c(sc3n2)CCCC4)c1)c1cccs1 | -1.09 | -1.37
CS(=O)(=O)Nc1nc2ccc(NC(=O)c3ccco3)cc2s1 | -0.07 | nt
O=C(Nc1ccc(Oc2cccc(C(F)(F)F)c2)nc1)Nc1cccs1 | nt | -0.49
CCc1cccc(C)c1-n1nnnc1C(C)(CC)N1CCOCC1 (centres undefined) | -0.62 | nt
Cc1oc2c(C)c3oc(=O)c4c(c3cc2c1C)CCC4 | nt | -1.35
O=C(CNC(=O)Cn1ccc2ccccc2c1=O)NCCC1=CCCCC1 | nt | 0.58
COc1ccc(Nc2ncnc3c2cnn3C)c(OC)c1 | 1.79 | nt
Cc1ccc(S(=O)(=O)NCCc2csc(-c3ccc(Cl)cc3)n2)cc1 | 0.55 | nt
CCc1cc2c(=O)c(-c3nc4ccccc4n3C)c(C)oc2c(CN(CC)CC)c1O | nt | -1.22

Remaining list, next part.
SMILES | TAR Tat displ | CDC25B-CDK2 inh
CCn1c(C(=O)N2CCCC(C(=O)NC3CCC(C)CC3)C2)cc2sccc21 (centres undefined) | 1.97 | -1.14
Cc1cc(C)c2oc(C(=O)N(Cc3ccc(Cl)cc3)C3CCS(=O)(=O)C3)cc(=O)c2c1 (centres undefined) | 1.42 | -1.31
CCOc1ccccc1C1C2=C(CC(C)(C)CC2=O)Nc2ncnn21 (centres undefined) | -0.88 | nt
c1nc2sc3c(c2c2nnc(C4CCCCC4)n12)CCCC3 | 0.47 | -0.26
Cc1csc(N2N=C(c3ccc(F)cc3)CC2c2cccs2)n1 (centres undefined) | -0.27 | 0.25
COC(=O)Cn1nnc2sc3c(c2c1=O)CCC(C(C)(C)C)C3 (centres undefined) | 2.24 | 2.57
O=C(Cn1nc(C(F)(F)F)c2c1CCCC2)Nc1ccc(-n2cccc2)c(Cl)c1 | -0.71 | 0.86
COc1ccc2nc3ccccc3c(N)c2c1 | nt | 0.95
CCN(CC)C(=O)C1=CC(c2ccc(C)cc2)=NS(=O)(=O)N1C | 1.68 | -2.11
Fc1cccc(N=Cc2ccc3c(c2)OCO3)c1 | nt | -2.2
CCOC(=O)c1c(C)[nH]c(C)c1S(=O)(=O)N(CCOC)Cc1cccs1 | 0.78 | nt

No new results follow: an excerpt of the list.
SMILES | TAR Tat displ | CDC25B-CDK2 inh
CCc1cccc(C)c1-n1nnnc1C(C)(CC)N1CCOCC1 (centres undefined) | -0.62 | nt
Cc1oc2c(C)c3oc(=O)c4c(c3cc2c1C)CCC4 | nt | -1.35
O=C(CNC(=O)Cn1ccc2ccccc2c1=O)NCCC1=CCCCC1 | nt | 0.58
COc1ccc(Nc2ncnc3c2cnn3C)c(OC)c1 | 1.79 | nt
Cc1ccc(S(=O)(=O)NCCc2csc(-c3ccc(Cl)cc3)n2)cc1 | 0.55 | nt
CCc1cc2c(=O)c(-c3nc4ccccc4n3C)c(C)oc2c(CN(CC)CC)c1O | nt | -1.22
CCn1c(C(=O)N2CCCC(C(=O)NC3CCC(C)CC3)C2)cc2sccc21 (centres undefined) | 1.97 | -1.14
Cc1cc(C)c2oc(C(=O)N(Cc3ccc(Cl)cc3)C3CCS(=O)(=O)C3)cc(=O)c2c1 (centres undefined) | 1.42 | -1.31
CCOc1ccccc1C1C2=C(CC(C)(C)CC2=O)Nc2ncnn21 (centres undefined) | -0.88 | nt
c1nc2sc3c(c2c2nnc(C4CCCCC4)n12)CCCC3 | 0.47 | -0.26
Cc1csc(N2N=C(c3ccc(F)cc3)CC2c2cccs2)n1 (centres undefined) | -0.27 | 0.25
COC(=O)Cn1nnc2sc3c(c2c1=O)CCC(C(C)(C)C)C3 (centres undefined) | 2.24 | 2.57
O=C(Cn1nc(C(F)(F)F)c2c1CCCC2)Nc1ccc(-n2cccc2)c(Cl)c1 | -0.71 | 0.86
COc1ccc2nc3ccccc3c(N)c2c1 | nt | 0.95
CCN(CC)C(=O)C1=CC(c2ccc(C)cc2)=NS(=O)(=O)N1C | 1.68 | -2.11
Fc1cccc(N=Cc2ccc3c(c2)OCO3)c1 | nt | -2.2
CCOC(=O)c1c(C)[nH]c(C)c1S(=O)(=O)N(CCOC)Cc1cccs1 | 0.78 | nt

Source: PubChem BioAssay
